# RanGTP-Imp inh = inhibitors of RanGTP-importin-beta interaction, primary screen, biochemical, FRET, CFP-Ran, YFP-importin-beta, homogeneous | cell-free CFP-Ran/YFP-importin-beta FRET ratio | inhibition, % (concentration not given with the values) | hit rate 1.1% among 300,000;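 active means most replicates above 15%; inconclusive means exactly half above 15%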;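 further: 0% = DMSO wells and 100% = Ran loaded with GDP instead of GTP; wells of about 40 µL received 100 nL stock; the first replicate is given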
# ALR inh = blocks human ALR sulfhydryl oxidase activity; P55789; purified ALR, DTT oxidation, H2O2 HRP-luminol luminescence; inhibition, % (no concentration beside the values); hit rate 3.8% among 290,000; AID 485317;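 active means mean and each replicate at 75% or more; inconclusive means only one of the two met; inactive means neither met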;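 further: stock transfer was 7.5 nL into about 7.5 µL; 0% = neutral wells and 100% = wells with inactivated enzyme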
# Target sequence (P55789 whole entry, looked up): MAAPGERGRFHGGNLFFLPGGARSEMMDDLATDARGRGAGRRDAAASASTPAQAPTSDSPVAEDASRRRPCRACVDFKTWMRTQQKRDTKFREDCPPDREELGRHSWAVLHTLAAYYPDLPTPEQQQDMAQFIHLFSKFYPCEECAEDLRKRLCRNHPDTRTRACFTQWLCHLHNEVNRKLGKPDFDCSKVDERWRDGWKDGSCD
# MLL AF4-AF9 inh = blocks AF4 peptide binding to human AF9. P42568. AlphaScreen, biotin-AF4 peptide binding to FLAG-AF9. inhibition, % at 10 µM. hit rate 0.47% among 350,000. AID 651704;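 active means every replicate reaching a set inhibition limit, whatever the replicate mean, cut at about 25% in these data; inconclusive means mean inhibition reaches that limit but some replicates miss it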;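 further: 0% = plate neutral control median and 100% = total signal loss; the record names both 10 and 1 µM as test concentration; the first replicate is given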
# Target sequence (P42568 whole entry, looked up): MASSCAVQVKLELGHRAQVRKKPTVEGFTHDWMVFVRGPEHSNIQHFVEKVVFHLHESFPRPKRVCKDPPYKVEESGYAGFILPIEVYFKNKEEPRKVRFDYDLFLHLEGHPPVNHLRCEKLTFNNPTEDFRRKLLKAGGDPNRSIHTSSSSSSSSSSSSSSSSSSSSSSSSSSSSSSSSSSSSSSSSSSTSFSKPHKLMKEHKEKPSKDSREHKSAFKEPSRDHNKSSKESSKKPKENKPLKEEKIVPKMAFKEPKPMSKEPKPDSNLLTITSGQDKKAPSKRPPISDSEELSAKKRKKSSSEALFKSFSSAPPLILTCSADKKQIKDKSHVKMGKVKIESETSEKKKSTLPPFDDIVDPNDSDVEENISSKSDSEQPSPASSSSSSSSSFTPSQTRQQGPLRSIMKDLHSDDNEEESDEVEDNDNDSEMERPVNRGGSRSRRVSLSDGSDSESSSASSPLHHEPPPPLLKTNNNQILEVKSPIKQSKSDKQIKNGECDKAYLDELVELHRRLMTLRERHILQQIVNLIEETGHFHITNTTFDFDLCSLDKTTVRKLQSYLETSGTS
# Calb FLC = C. albicans growth modulation with fluconazole; AID 1979; hit rate 0.57% among 300,000; growth inhibition, % (no concentration beside the values); C. albicans CaCi-2 (fluconazole-resistant clinical isolate) + fluconazole, Alamar Blue growth, 48 h;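 active means most replicates above 75%; inconclusive means exactly half above 75%; inactive means most below 75%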;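 further: all wells also contain fluconazole at 8 µg/ml as a sub-toxic cotreatment; 0% = median of DMSO wells and 100% = median of geldanamycin control wells; wells of about 8 µL received 7.5 nL stock; the first replicate is given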
# rRNA inh HTS = selective bacterial rRNA inhibition in E. coli | E. coli WT GFP vs humanized-ribosome RFP mutants, fluorescence, 24 h; hits give low values; DMSO median 0, no signal -100 | GFP signal change (wild-type ribosome), % (test concentration not listed) | hit rate 1.6% among 350,000;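 active means significant combined selectivity score with lowered wild-type GFP, culture density cut under 30%, mutant RFP and density less affected; inactive means any of these conditions unmet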; further: one replicate is shown; some compounds called inactive have numbers as strong as hits
# Beta cell apopt = blocks beta cell apoptosis; INS-1E cytokine-induced death, ATP luminescence, 48 h; percent of positive-control rescue, neutral wells zero; protection from apoptosis, % (test concentration not listed); hit rate 0.8% among 300,000; AID 435005;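 active means all replicates at 75% or more, or half of them and the mean; inconclusive means half reach 75% but not the mean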;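 further: 0% = cytokine-treated negative control wells and 100% = positive control rescue; higher means more ATP so stronger rescue from cytokine killing; wells of about 40 µL received 100 nL stock; the first replicate is given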
# FGF22 binding = shifts melting point of recombinant human FGF22; Q9HCT0; recombinant FGF22 thermal shift, SYPRO orange fluorescence; percent of sucrose octasulfate shift, DMSO zero; calls only at 9.99 µM; hit rate 1.5% among 340,000;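 active means melting point raised past a set limit in the mean and every replicate; inconclusive means no clear call; three in four hits are not shown here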
# Target sequence (Q9HCT0 whole entry, looked up): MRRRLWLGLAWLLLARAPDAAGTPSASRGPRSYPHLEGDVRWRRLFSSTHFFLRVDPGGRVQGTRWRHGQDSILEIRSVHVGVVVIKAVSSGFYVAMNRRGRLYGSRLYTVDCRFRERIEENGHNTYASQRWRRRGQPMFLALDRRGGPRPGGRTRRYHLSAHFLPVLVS
# T cruzi inh = T. cruzi replication inhibition; T. cruzi beta-gal in NIH3T3, luminescence, 90 h; inhibition, % (test concentration not listed); hit rate 1.4% among 300,000; AID 1885;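 active means mean inhibition across valid replicates above about 55%, limit read from the data; inconclusive means mean below that limit but half or more replicates reach it; inactive means mean below it, under half of replicates reach it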;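 further: signal also drops with host cell toxicity which is not excluded here; 0% = plate median of DMSO wells and 100% = zero luminescence signal; higher percent means less beta-gal luminescence so fewer parasites; stock transfer was 50 nL into about 50 µL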
# rRNA inh HTS OD600 = recorded beside rRNA inh HTS, whose call it bears; OD600 change, %; measured here: OD600 growth;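 optical density of the mix in the first replicate; 0 = DMSO median and -100 = no signal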
# rRNA inh HTS RFP = further read-out of rRNA inh HTS, marked with its call; RFP signal change, %; measured here: RFP humanized mutant strains;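 first replicate; 0 = DMSO median and -100 = no signal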
# Starred values were filed as active, the others as inactive; i = inactive; ? = inconclusive; · = no result given. An excerpt (hit frequency here may not be typical).
SMILES,RanGTP-Imp inh,ALR inh,MLL AF4-AF9 inh,Calb FLC,rRNA inh HTS,rRNA inh HTS OD600,rRNA inh HTS RFP,Beta cell apopt,FGF22 binding,T cruzi inh
O=C(Nc1ccccn1)Nc1ccccc1[N+](=O)[O-],0.5,31,3.1,-5,3,-2,-2.5,1,i,-6
CN=C1c2cc3cc(OC)ccc3n2CCN1C,-5.7,-6,-7.4,27,·,·,·,-7,·,2
COc1cccc(/C=C2\SC(=S)N(CCCC(=O)N3CCCCC3CCO)C2=O)c1 (stereo not given),-0.3,-33,11,2,-14,-16,-0.3,-38,i,-4
Cc1ccc(-c2[nH]ncc2/C=C(\C#N)C(=O)NC2CCCCC2)cc1,?,28,·,1,·,·,·,-2,·,-12
COc1ccc(CNS(=O)(=O)c2c(C)[nH]c(C)c2C(=O)N2CCCCC2)cc1,4.9,-12,-4.9,-2,6,-7,1.1,-15,i,-4
CCCCCCCNC1=CC(=O)CC(c2ccco2)C1 (stereo not given),4.1,11,·,-12,·,·,·,4,·,11
Cc1ccc(NC(=O)CSc2cccc[n+]2[O-])c([N+](=O)[O-])c1,-2.2,-6,-2.0,17,2,10,-1.3,-1,i,-4
COc1ccc(NC(=O)CSc2nnc(CC(=O)Nc3ccc(F)cc3)n2C)cc1,24,-2,-1.6,2,-1,0,2.8,2,i,10
Cc1c(-c2nc(N)nc(Nc3ccc(F)cc3)n2)oc2ccccc12,-3.5,3,·,1,·,·,·,·,·,62*
O=C(COC(=O)c1ccc(Cl)cc1Cl)Nc1cccc(S(=O)(=O)NC2=NCCC2)c1,·,0,1.7,·,-3,-20,-3.3,-5,i,·
CN(Cc1ccccc1)C(=O)CCCn1c(=O)c2cccn2c2cccnc21,1.5,11,1.9,-15,-6,-12,0.4,-3,i,16
CNC(=O)CN(c1ccc(C23CC4CC(CC(C4)C2)C3)cc1)S(C)(=O)=O,-2.7,-18,-0.6,?,0,6,3.0,4,i,29
COc1ccccc1NC1=C(Cl)C(=O)OC1OC(=O)c1ccco1 (stereo not given),-1.3,31,-2.1,10,-1,-5,-2.2,-6,i,-20
COc1ccc(C=NNC(=O)c2ccccc2NS(=O)(=O)c2cccs2)cc1O,·,66,0.8,·,-26*,-6.8*,-3.7*,-3,i,·
Cc1ccc(OCc2nc(-c3ccccn3)no2)c(Br)c1,?,-11,·,-14,·,·,·,·,·,-5
CCn1ccnc1CN(C)C(=O)CC1C(=O)NCCN1Cc1c(F)cccc1Cl (stereo not given),-2.2,-4,-2.3,24,14,15,1.3,-4,i,-2
O=c1c2cc([N+](=O)[O-])ccc2nc2n1CCC2,-3.7,-36,-1.5,-5,4,0,5.4,-3,i,-5
Nc1c(NCc2ccccc2)c(=O)c1=O,3.3,2,-5.5,-1,1,5,-2.6,-1,i,1
Cc1cc(C(=O)COC(=O)c2ccc[nH]c2=O)c(C)n1C1CC1,-1.8,7,0.1,-6,-8,-17,-1.6,-1,i,-13
CCc1ccc(N2CC(C(=O)Nc3ccc(S(=O)(=O)Nc4nccs4)cc3)CC2=O)cc1 (stereo not given),-2.0,-3,1.8,6,0,3,3.3,-1,i,-9
O=C(CSc1nc2ccccc2c(=O)n1CCCO)NC1CC1,·,1,0.6,·,4,7,-2.0,-1,i,·
CCCC(=O)N/C(N)=N/c1nc(C)c2ccccc2n1,11,1,·,-6,23,1,58,-3,i,-4
Cc1ccc(-c2cc(C(=O)Nc3nccs3)c3ccccc3n2)o1,-6.0,-16,·,4,·,·,·,-14,·,-9
CCc1ccc(NC(=O)C2(C)Cc3ccccc3C(=O)O2)cc1 (stereo not given),3.7,-3,-1.6,-6,-15,-19,-3.3,-2,i,10
O=C(Nc1ccc(S(=O)(=O)Nc2ncccn2)cc1)C12CC3CC(CC(Cl)(C3)C1)C2,·,37,2.2,·,19,15,5.5,-7,·,·
O=C(C[n+]1cc(Br)cc2ccccc21)c1ccccc1,-0.3,-2,2.0,-6,-10,-9,3.2,-10,i,47
FC(F)Oc1ccc(/C=N/N2CCCCC2)c(OC(F)F)c1,-1.3,-2,·,-26,·,·,·,1,·,11
C=CCN1C(=NC(=O)CCC(=O)O)SC2CS(=O)(=O)CC21 (stereo not given),0.6,-1,·,1,·,·,·,-1,·,-14
O=C(COC(=O)c1n[nH]c(=O)c2ccccc12)c1ccccc1,-2.3,-7,·,-1,·,·,·,-2,·,-9
CC(=O)NCCc1nc2cc(NC(=O)c3ccccc3Cl)ccc2n1C,-4.2,1,-0.9,-4,1,5,-0.7,3,i,-9
O=C(NCc1ccc(F)cc1)C1Cc2ccccc2CN1C(=O)c1ccco1 (stereo not given),-4.6,·,-2.0,-23,7,3,0.5,-1,i,1
COc1ccc(-c2oc3cccnc3c2/C=C/c2ccc(OC)c(OC)c2)cc1,-2.9,-22,-6.9,-2,3,6,3.9,-4,i,4
CCOc1ccccc1C(=O)NCCc1cnc[nH]1,0.4,-6,-2.7,1,9,12,-2.1,2,i,11
Cc1c(Br)c([N+](=O)[O-])nn1CC(=O)Nc1ccccn1,-0.4,1,0.9,-3,8,10,6.6,2,i,0
COCCN(C(=S)Nc1ccc(C)cc1)C(C)c1cccnc1 (stereo not given),0.0,-1,-49,0,4,1,-2.1,0,·,2
Cc1ccc(C(=O)Nc2ccc3c(c2)OCO3)cc1,2.8,-14,·,-18,·,·,·,8,·,12
Cc1ccc(NC(=S)c2ccccc2)cc1,1.3,4,·,-14,·,·,·,1,·,-19
Nc1cccc(NC(=O)CN2CCOCC2)c1,-2.5,-29,-1.3,2,5,6,-2.8,·,i,18
O=C(NCCc1ccccc1)c1cc(-c2ccncc2)nc2ccc(S(=O)(=O)N3CCOCC3)cc12,0.0,-1,4.1,4,13,16,-1.8,1,i,1
CCOC(=O)N1CCN(C(=O)CSc2ccc(-c3cccnc3)nn2)CC1,0.1,-4,3.5,9,18,7,-4.6,-3,i,-1
Nc1ccccc1SCc1cn2cccnc2n1,5.7,98*,-7.4,1,-5,1,-11,·,i,-8
Cc1[nH]n(-c2ccccc2)c(=O)c1N=Nc1cccc(C(=O)O)c1,-3.1,-1,-0.2,-3,-27*,-14*,-2.7*,·,i,3
Cc1ccc(C)c(NC(=O)c2cc(=O)c3ccccc3o2)c1,0.5,-3,·,2,·,·,·,-3,·,-2
O=c1cc(-c2ccccc2F)oc2ccccc12,-1.5,·,·,-25,·,·,·,-1,·,-6
COc1cccc(C2CC(c3ccccc3)Nc3nc(N)nn32)c1 (stereo not given),-3.5,1,-0.8,-3,7,2,1.3,-3,i,8
O=C(O)c1csc(-c2cccs2)n1,3.7,·,-3.2,-13,5,-12,3.4,0,i,-6
CCCCCn1c(SCC(=O)OC)nc2c1c(=O)[nH]c(=O)n2C,2.3,·,-13,15,3,-4,-1.3,-1,i,-1
CCCCC(c1nnnn1CCOC)N1CCN(Cc2ccccc2)CC1 (stereo not given),5.6,-2,·,-55,·,·,·,-4,·,14
O=C(Nc1ccccc1N1CCCCC1)c1cccs1,-0.4,11,·,-7,·,·,·,-13,·,23
CC(C)(C)c1ccc(NC(=O)c2ccc(=O)[nH]n2)cc1,-2.1,11,2.1,-1,-3,8,-1.9,-3,i,-2
COCc1nnc(NC(=O)CCc2ccccc2)s1,4.3,·,·,-1,·,·,·,-3,·,-6
O=C1N(Cc2cccnc2)C[C@@H]2C[C@@H](c3ccccc3C#Cc3ccccc3)N3CCC[C@@]123,1.5,-13,6.9,8,-2,-9,0.1,4,·,19
O=C(COc1ccccc1F)N1c2ccccc2CCc2ccccc21,-0.8,-12,·,15,·,·,·,0,·,4
O=C(O)c1ccc(Cl)c(S(=O)(=O)Nc2ccccc2N2CCOCC2)c1,1.6,1,-3.9,-3,-4,-9,-4.2,-13,i,-8
O=C(c1cc2nc(-c3ccco3)cc(C(F)(F)F)n2n1)N1CCN(Cc2ccccc2)CC1,5.8,-1,·,-1,·,·,·,4,·,30
O=[N+]([O-])c1ccccc1S(=O)(=O)NCc1ccc(F)cc1,-2.7,-11,0.9,10,-12,-8,0.7,-1,i,2
CC(NCC(=O)Nc1ccccc1C(=O)NC1CC1)c1ccc(F)cc1F (stereo not given),·,-2,-3.3,·,1,13,0.7,1,i,·
CC(C)C(=O)N(Cc1ccccc1)S(=O)(=O)c1ccc2c(c1)oc(=O)n2C,-3.5,-13,-1.9,-3,1,2,-4.7,-8,i,4
COc1ccccc1N1C(=N)S/C(=C\c2ccc(-c3ccccc3C(=O)O)o2)C1=O,-9.3,98*,2.3,-4,·,·,·,-3,i,-14
CCOC(=O)CSc1nc(-c2ccc(OC)cc2)ns1,0.0,·,·,-10,·,·,·,13,·,-12
# Going on with the list.
SMILES,RanGTP-Imp inh,ALR inh,MLL AF4-AF9 inh,Calb FLC,rRNA inh HTS,rRNA inh HTS OD600,rRNA inh HTS RFP,Beta cell apopt,FGF22 binding,T cruzi inh
CC(C)(C)n1nnnc1C(c1ccc(Cl)cc1)N1CCSCC1 (stereo not given),1.7,-3,·,-7,·,·,·,-9,·,7
COc1ccccc1-n1nc(C(=O)Nc2ccc3c(c2)OCO3)c2ccccc2c1=O,-3.0,-4,·,-6,·,·,·,3,·,10
CCS(=O)(=O)N1Cc2ccccc2CC1C(=O)Nc1nc2ccccc2[nH]1 (stereo not given),-2.9,-22,·,-12,·,·,·,6,·,-9
Cc1ccc(C#CC[N+](C)(C)CC#Cc2ccccc2)cc1,4.1,-18,2.6,-31,-54*,-14*,-16*,11,i,57*
CCOC(=O)CNc1ccc(OC(F)(F)F)cc1,2.3,-4,-0.1,-9,4,10,-0.6,-7,i,-18
Cn1c(C(=O)OC(C(=O)NC2CCCC2)c2ccncc2)cc2sccc21 (stereo not given),-2.2,-2,·,-2,·,·,·,-3,·,20
COc1cccc(CNC(=O)COC(=O)c2ccc(Cl)s2)c1,·,0,-0.9,·,5,13,-2.8,-1,i,·
CCC1(C)C2(C#N)C(N)=NC(OC)(OC)C12C#N (stereo not given),3.2,2,·,6,·,·,·,-12,·,-14
O=C(Nc1ccc2nn(-c3ccccc3)nc2c1)c1ccc(Br)o1,-2.3,-11,-0.9,10,6,12,-1.3,16,i,26
Cc1ccc2[nH]c(=O)c(CN(CCCN3CCOCC3)C(=O)Nc3ccc(Cl)cc3)cc2c1,8.7,·,6.1,26,-55,-81,-24,-1,i,-8
Cc1ccc(S(=O)(=O)Nc2ccccc2CNc2ncc(Br)cc2Br)cc1,5.7,7,·,2,·,·,·,-7,·,28
O=C(CSc1ccsc1[N+](=O)[O-])NCCc1ccc(Cl)cc1,-1.4,-4,·,-5,·,·,·,·,·,0
Cn1ccsc1=NC(=O)c1ccc([N+](=O)[O-])o1,1.8,-28,-1.1,45,-58,-80,-20,-1,i,60*
COc1ccc(CCNC(=O)COC(=O)c2ccc([N+](=O)[O-])o2)cc1,·,-13,-0.3,·,-10,-4,-3.5,2,i,·
